# High-throughput results as filed in PubChem BioAssay.
# Ba CapD inh: Bacillus anthracis CapD inhibitors, primary screen, biochemical, fluorescence intensity. CapD gamma-glutamyltranspeptidase (Bacillus anthracis Ames Ancestor). AID 492967, 2010. purified CapD enzyme, fluorescence intensity read-out; active compounds read low; some hits fall short of the stated cut. z-score (concentration not given with the values). 140,000 tested, 0.23% active;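 active = z-score under -4 in either of two replicates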;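 also: stock transfer was 100 nL into about 40 µL; score is relative to mean and spread of the plate; one replicate is shown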
# AID504770: growth inhibition of E. coli YBA685, primary screen, V. cholerae RctB inhibitors | 130,000 tested, 0.27% active | AID 504770, 2011 | z-score (no concentration beside the values) | E. coli YBA685 rctB-dependent plasmid, OD600 growth, 3 h; active compounds read low;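 active = z-score under -2 on both plates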;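 also: wells of about 30 µL received 100 nL stock; score is relative to mean and SD of the test wells; the first replicate is given; strong numbers were not always called active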
# * hit, by the source's call; . = not tested or not shown; & = joins results of further samples.
SMILES,Ba CapD inh,AID504770
O=C1CC(Cc2ccccc2)(c2ccccc2)C(=O)N1 (stereo not drawn),-0.745,-0.9
O=C1NC2=C(C(=O)c3ccccc32)C(c2ccc(Cl)cc2)S1 (stereo not drawn),0.14,1
COC(=O)c1sccc1S(=O)(=O)NC1CCS(=O)(=O)C1 (stereo not drawn),0.105,1.25
COC(=O)/C(C(C)=N)=C(\O)CSc1ccc(Cl)cc1,.,-1
Nc1cc(=O)[nH]c(=S)n1-c1cccc(C(F)(F)F)c1,0.105,-0.95
O=C(COC(=O)c1ccc(N2C(=O)CCC2=O)cc1)Nc1cccc(Cl)c1,0.51,-0.1
Cc1cccc2nc(-c3ccccc3)c(-c3ccccc3)nc12,-0.57,.
Cc1cc(CNC(C)c2cc3ccccc3o2)c(C)n1-c1cccc(S(=O)(=O)N2CCOCC2)c1 (stereo not drawn),.,-0.45
CC1=C(C(=O)OCc2ccccc2)OC(N)=C(C#N)C1c1ccc(F)cc1 (stereo not drawn),1.52,-0.95
O=C1c2ccccc2C(=O)N1n1c(=O)[nH]c2ccccc2c1=O,0.675,1.8
CCOC(=O)c1sc2ncnc(Nc3ccc(F)c(Cl)c3)c2c1C,0.525,.
Cc1cc(C)c(CSc2nccn2C)c(C)c1,-0.86,.
COc1ccc(S(=O)(=O)Nc2cc(C(=O)NCc3ccccc3OC)ccc2N2CC3CC(C2)c2cccc(=O)n2C3)cc1 (stereo not drawn),0.325,.
Cc1ccc(-c2ccc(C=C3C(=O)N(C)C(=S)N(C)C3=O)o2)c(Br)c1,0.32,.
C/C=C1/CN2CCC34C(=C(C(=O)OC)C1CC23)Nc1c(O)cccc14 (stereo not drawn),0.415,-0.5
CCCCN(CCCC)c1ncnc2c1sc1nc(CCC)c3c(c12)CC(C)(C)OC3,0.47,.
CCCC(=O)N1c2ccccc2C(N(C(=O)c2ccccc2)c2ccc(F)cc2)CC1C (stereo not drawn),-0.3,.
CCc1ccc(NC(=O)C(C)N2C(=O)c3ccccc3C2=O)cc1 (stereo not drawn),0.735,0.75
O=C(c1cc(Cl)c2c(c1)OCO2)N1CCCSc2ccccc21,.,0.2
CC1=C(C(=O)Nc2ccc(Cl)cc2)C(c2ccncc2)C(C#N)=C(SCC(=O)Nc2ccc(Cl)c(Cl)c2)N1 (stereo not drawn),1.58,.
COC(=O)c1ccccc1SCC(=O)Nc1ccsc1C(=O)OC,-0.45,.
Cc1cccc(C2=NN3C(=N)/C(=C\c4ccc5c(c4)OCO5)C(=O)N=C3S2)c1,0.37,-0.4
O=C(c1cccc(S(=O)(=O)N2CCCCC2)c1)N1CCCCC1,0.925,0
O=C(NCC1CC1)Nc1ccccc1,0.345,-0.75
COC(=O)c1cncc(Br)c1,0.46,0.1
CC(=O)Nc1sccc1C(=O)O,0.89,-0.35
CCOC(=O)c1c(NC(=O)c2ccccc2F)sc(C(=O)Nc2cc(C(F)(F)F)ccc2Cl)c1C,0.485,.
Cc1ccc(-c2nnn(CC(=O)N(c3ccccc3)C(C(=O)NCc3ccccc3)c3ccncc3)n2)o1 (stereo not drawn),.,0
CCOC(=O)c1ccc(NCn2c(=O)oc3ccccc32)cc1,-0.135,-0.85
CS(=O)(=O)NC1CC(=O)N(c2cccc(F)c2)C1 (stereo not drawn),.,-1
O=C(O)/C(=C(/O)c1ccccc1)c1nc2ccccc2[nH]1,.,-0.45
O=C(O)c1c(CNC2CCCC2)c2ccccc2n1Cc1ccccc1,0.375,-0.55
C=CCNC(=O)c1ccccc1Sc1ccccc1C#N,0.17,-0.65
O=c1cc(CSc2n[nH]c(=O)n2-c2cccnc2)c2ccc(O)cc2o1,-1.71,0.2
COc1cccc(-n2ccnc2SCC(=O)NCc2ccc3c(c2)OCO3)c1,0.115,-0.45
CCOC(=O)c1ccc(-c2ccc(/C=C3\C(=O)N(c4ccc(S(N)(=O)=O)cc4)N=C3C(F)(F)F)o2)cc1,2.76,.
CCOC(=O)CSc1nc2cc(C(=O)N3CCN(C(=O)OCC)CC3)ccc2c(=O)n1Cc1ccccc1,-0.995,.
COc1ccc(C)cc1NC(=O)c1ccc(S(C)(=O)=O)cc1,.,1.9
Cc1ccc(OCC(=O)N2CCCCC2)c(C)c1,0.305,-0.05
N#CC1=C(N)OC(c2ccccc2)=C(n2cncn2)C1c1ccc(Br)cc1 (stereo not drawn),0.32,.

# Compound profiles, as listed above. Order of screens: Ba CapD inh	AID504770
# Cc1cccc(C2=NN3C(=N)/C(=C\c4ccc5c(c4)OCO5)C(=O)N=C3S2)c1 is listed as 0.37	-0.4
# COC(=O)/C(C(C)=N)=C(\O)CSc1ccc(Cl)cc1 is listed as .	-1

# (listing goes on)
SMILES,Ba CapD inh,AID504770
CC(=O)Oc1ccc2c(=O)c(Oc3ccc(Cl)cc3)c(C)oc2c1,3.01,0.15
O=C(CSc1nnnn1-c1ccc(O)cc1)c1cc(C(F)(F)F)cc(C(F)(F)F)c1,0.2,0.25
COC(=O)C1C2c3ccccc3OC1(C)N=c1s/c(=C\c3ccc(C)o3)c(=O)n12 (stereo not drawn),.,-0.05
COc1ccc(C(=O)N2CC(C)CC(C)C2)cc1 (stereo not drawn),.,0.15
Cc1onc(-c2ccccc2Cl)c1C(=O)c1ccc(F)cc1,0.785,.
O=C(Cn1c(SCc2cccc(Cl)c2)nc2ccncc21)NCC1CCCO1 (stereo not drawn),0.12,-0.15
Cc1ccccc1NC(=O)N(Cc1cccs1)C(=O)CC#N,-0.155,0.5
Cc1nc(SCC(=O)Nc2ccc3ccccc3c2)c2c3c(sc2n1)CCC3,0.165,.
NC(=O)COC(=O)C12CC3CC(CC(O)(C3)C1)C2,.,-0.1
CCOC(=O)c1ccc(NCc2ccccc2O)cc1,2.91,0.25
COC(=O)CCS(=O)(=O)c1nc(-c2cccs2)cc(C(F)(F)F)n1,-0.2,.
COc1cc(NC(=O)C2CC(=O)NC3=C2C(=O)CCC3)cc(OC)c1 (stereo not drawn),-0.4,0.15
COc1ccccc1Nc1n[nH]c(=S)n1C(=O)c1cccs1,7.25,-0.45
O=C(CC(=O)Nc1ccccc1)Nc1ccccc1,-0.53&-0.085,-0.3
COc1cc2c(cc1OC)C(COc1ccccc1OC)N(C(C)=O)CC2 (stereo not drawn),0.455,-0.25
Cc1ccc(C(O)C(C)C)cc1 (stereo not drawn),-0.205,0.65
CC(=O)Nc1ccc(NC(=O)CSc2nnc3ccccn23)cc1,.,-2.2
CCOC1=NOC2C3CCC(C3)C12 (stereo not drawn),0.45,-0.4
O=C(Cn1nnc(-c2ccccc2)n1)N(c1ccccc1)c1ccc2ccccc2c1,-0.25,0.8
CC1(C)CC(=O)c2cc3c(N)c(C(=O)Nc4ccccc4)sc3nc2C1,-0.22,-0.25

# By substructure: those above with bromine.
SMILES,Ba CapD inh,AID504770
Cc1ccc(-c2ccc(C=C3C(=O)N(C)C(=S)N(C)C3=O)o2)c(Br)c1,0.32,.
COC(=O)c1cncc(Br)c1,0.46,0.1
N#CC1=C(N)OC(c2ccccc2)=C(n2cncn2)C1c1ccc(Br)cc1 (stereo not drawn),0.32,.

# The list continues.
SMILES,Ba CapD inh,AID504770
CC1=NN(c2ccc(Br)cc2)C(=O)/C1=C\c1ccc(N(C)C)c([N+](=O)[O-])c1,-0.43,.
FC(F)(F)c1cc(-c2ccc(Cl)cc2)nc(N2CCCCC2)n1,0.3,-1.1
Cc1cc(NNC(=O)c2cccc(C(F)(F)F)c2)nc2c1c(C)nn2C,-0.985,2.35
O=c1oc(-c2cccc3ncccc23)nn1Cc1ccccc1F,.,-0.45
O=C(COc1ccccc1N1CCCCC1)N1CCOCC1,0.48,2.25
Cc1ccccc1C(=O)N1CCC(C(=O)N2CCc3ccccc32)CC1,.,-2.2
CC(NCc1ccc(OC(F)F)cc1OC(F)F)c1ccc(-n2ccnc2)cc1 (stereo not drawn),.,0.9
CC1=NC(C(F)(F)F)(C(F)(F)F)C2=C(CC(C)(C)CC2=O)N1C(C)c1ccccc1 (stereo not drawn),-0.71,-0.25
CC(=O)NC1=NC(=O)/C(=C/c2cn(C(C)=O)nc2-c2ccccc2)S1,-0.005,.
c1cc(-c2nnco2)ccn1,1.55,0.7
CCOC(=O)c1c(-c2ccccc2)oc2cc(Br)c(OCC(=O)OC)cc12,3.06,.
CN1CCSC1=NCCSc1ccc(Cl)cc1,.,-0.9
CC(NC(=O)COc1ccccc1O)C1CC2CCC1C2 (stereo not drawn),.,0.5
COC(=O)c1cc2occc2n1CC(=O)Nc1cc(C)cc(C)c1,-1.17,2
Cn1c(=O)[nH]c2ncn(C)c2c1=O,0.235,.
COc1ccc(C2=C(C)C(=NCCCN(C)Cc3ccccc3)NS2(=O)=O)cc1,3.34,0.75
COc1ccc(-c2cc(C(F)(F)F)nc(NC(C)c3ccccc3)n2)cc1OC (stereo not drawn),-0.895,2.45
COC(=O)CC(N)c1ccccc1Cl (stereo not drawn),.,-0.9
CN1c2ccccc2N(C)C1c1ccc2c(c1)OCO2,-0.165,-0.6
Cc1cc2c(cc1S(=O)(=O)N1CCCCC1C)OCC(=O)N2 (stereo not drawn),0.36,-0.6
Cc1ccc(N2C(=O)CSC23C(=O)Nc2ccccc23)cc1 (stereo not drawn),-0.02,.
O=C(Cc1ccccc1)Nc1ccn(Cc2ccccc2)n1,-0.53,-1.1
Cn1cnnc1SCc1ccc(C(=O)NN=C2C3CC4CC(C3)CC2C4)cc1,.,-0.6
Clc1ccc(-n2ncc3c(Nc4ccccc4)ncnc32)cc1,-0.24,-0.45
Cc1ccc(/C=C/C23NC(=O)CCN2c2ccccc2C3(C)C)cc1 (stereo not drawn),-0.3,.
COCCOc1cc(NC(=O)c2ccccc2Cl)c(Cl)cc1Cl,-0.17,.
NC(=O)c1cccc(C(N)=O)n1,-0.18,-0.3
O=C(Oc1ccc(Cl)cc1)c1ccc(=O)[nH]c1,.,-0.7
COC(=O)C1=C(C)NC(CCl)=C(C(=O)OC)C1c1cccc([N+](=O)[O-])c1 (stereo not drawn),-1.52,.
O=C(NC(c1ccc2c(c1)OCO2)c1ccc2cccnc2c1O)c1ccccc1 (stereo not drawn),-0.43,-0.4
NC(=O)c1ccc(OCC(F)(F)F)nc1,0.65,.
CC(NC(=O)Cc1ccc(Br)cc1)c1ccccc1 (stereo not drawn),0.415,0.05
O=C(O)c1ccc(N2CCCC2)cc1,.,-0.5
O=C(C1CC(c2ccccc2F)=NO1)N1CCc2ccccc2C1 (stereo not drawn),-0.04,0.45
COc1ccc(CN2CCN(C(=O)CC(C)C)CC2)cc1,-0.185,0.1
O=C(/C=C/c1ccco1)NNC(=O)OCCN1CCS(=O)(=O)CC1,-1.73,.
COc1cccc(OCC(=O)Nc2c(C(=O)Nc3ccccc3OC)oc3ccccc23)c1,-2.4,1.2
Cc1ccc(S(=O)(=O)NC2CCC(C)CC2)cc1C (stereo not drawn),.,-0.45
COc1cc(C#N)ccc1OC(=O)c1oc2ccccc2c1CSc1nc(C)cs1,.,0.25
Cc1csc2ncnc(N3CCN(C(=S)Nc4ccc(F)cc4F)CC3)c12,-0.565,0.85

# 4 entries already listed, arranged by molar mass, descending.
SMILES,Ba CapD inh,AID504770
COc1cc(C#N)ccc1OC(=O)c1oc2ccccc2c1CSc1nc(C)cs1,.,0.25
O=C(NC(c1ccc2c(c1)OCO2)c1ccc2cccnc2c1O)c1ccccc1 (stereo not drawn),-0.43,-0.4
COCCOc1cc(NC(=O)c2ccccc2Cl)c(Cl)cc1Cl,-0.17,.
COc1ccc(CN2CCN(C(=O)CC(C)C)CC2)cc1,-0.185,0.1

# New compounds follow.
SMILES,Ba CapD inh,AID504770
CCOC(=O)c1nnn(-c2nonc2N)c1CN1CCC(C(=O)OCC)CC1,-0.28,.
O=C(Nc1ccc(S(=O)(=O)Nc2ccccn2)cc1)c1ccc(F)cc1,15.5,-0.8
O=c1[nH]c(-c2ccc(Cl)cc2)nc2ccccc12,5.56,1.8
Cn1cc(C(=O)OCC(=O)N2CCCC2)c2ccccc21,.,-0.5
NC(=O)CC1(C(F)(F)F)OCCO1,-0.14,-0.2
Cc1onc(C(=O)NNC(=O)CCc2nc3ccccc3n2C)c1-c1csc(-c2ccccc2)n1,0.355,.
FC(F)(F)c1nnc2n1Nc1nc3ccccc3nc1S2,76.1,-0.8
O=C(O)c1ccc(Nc2nnc(-c3ccccc3)c(-c3ccccc3)n2)cc1O,2.98,0.5
O=C(c1ccccc1)N(Cc1ccc2c(c1)OCO2)Cc1nc2ccccc2c(=O)[nH]1,.,-0.9
NC(=O)COc1ccc(Br)cc1CNCc1ccco1,.,-0.3
CCOc1cccc2c1OC(c1ccc(OC)c(OC)c1)N1N=C(c3ccc(C)o3)CC21 (stereo not drawn),-0.825,.
Cc1nnsc1C(=O)Nc1ccc(F)cc1,.,-0.5
Cc1ccnc(NC(=O)CSC2=NC(=O)C(c3ccccc3)C(=O)N2)c1 (stereo not drawn),7.08,-0.05
CC(C)CCCC(C)C1CCC2C3CC=C4CC(OC(=O)CC5CCCCC5)CCC4(C)C3CCC12C (stereo not drawn),-0.32,.
Cc1ccn2cc(-c3ccc(S(=O)(=O)N4CCCCCC4)cc3)nc2c1,4.46,.
Cc1cc(C)n(-c2ccc(Sc3ccccn3)nn2)n1,0.175,.
O=C(CSc1nnc(C2COc3ccccc3O2)o1)Nc1ccc(F)cc1Cl (stereo not drawn),.,0.45
OCc1nc2ccccc2n1CN1CCOCC1,.,-0.2

# Two compounds picked at random from those above:
SMILES,Ba CapD inh,AID504770
CCOC(=O)c1nnn(-c2nonc2N)c1CN1CCC(C(=O)OCC)CC1,-0.28,.
O=C(CSc1nnc(C2COc3ccccc3O2)o1)Nc1ccc(F)cc1Cl (stereo not drawn),.,0.45
